Insulin prom inh: TRM-6 insulin promoter activity inhibition. inhibition, % at 2 µM. 130,000 tested, 0.9% active. TRM-6 cells (human fetal islet line), insulin promoter-eGFP reporter, imaging; reporter expression induced with tamoxifen;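 active means inhibition above the mean plus 3 SD, with well images judged a real hit on visual review, cut at about 60% in these data, passing the limit was not always enough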
HSV replic up: increases HSV replication in cells | HSV replication augmentation in cells, fold increase | maximum fold increase | 220,000 tested, 0.005% active | AID 1956;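 active means peak rise of 1.5-fold or more in the series; tested in PC3 cells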;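 further: first round at 10 µM; read as green reporter fluorescence; hits show the peak of a series up to 25 µM; 1 = signal of infected wells without compound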
GALR2 ag: activates the human galanin receptor 2; O43603; GALR2-expressing cells, agonist activation read-out; activation, %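 (tested at 5 µM)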; 140,000 tested, 0.48% active;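 active means above mean plus 3 SD of all compounds, about 5% in these data, not always enough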;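 further: 0% = vehicle buffer wells and 100% = reference agonist at full effect; tested in CHO reporter cells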
Target sequence (O43603 whole entry, looked up): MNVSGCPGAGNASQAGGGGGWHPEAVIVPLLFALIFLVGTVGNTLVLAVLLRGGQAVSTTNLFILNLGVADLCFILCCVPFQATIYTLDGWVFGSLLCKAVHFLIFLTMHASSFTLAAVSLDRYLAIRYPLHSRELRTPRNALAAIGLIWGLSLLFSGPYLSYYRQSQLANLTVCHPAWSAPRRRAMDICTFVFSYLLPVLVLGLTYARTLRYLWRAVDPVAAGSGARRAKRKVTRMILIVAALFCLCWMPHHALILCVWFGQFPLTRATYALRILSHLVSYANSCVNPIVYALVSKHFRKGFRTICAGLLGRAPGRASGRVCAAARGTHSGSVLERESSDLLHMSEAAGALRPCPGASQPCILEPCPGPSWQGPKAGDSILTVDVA
RGS16-Gao: RGS16-Galphao interaction regulator (human); O15492+P09471; 220,000 tested, 0.38% active; bead-based flow cytometry RGS16-Galphao binding, fluorescence; actives lie on both sides; AID 1441; binding response (% of control), % at 10 µM;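 active means below 25% or above 175%, edge rows of some plates excepted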;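 further: Galphao activated by GDP with aluminum fluoride before binding; 100% = wells without compound and 0% = beads without RGS; some results beyond the cut were filed as inactive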
Target sequence (O15492 whole entry, looked up): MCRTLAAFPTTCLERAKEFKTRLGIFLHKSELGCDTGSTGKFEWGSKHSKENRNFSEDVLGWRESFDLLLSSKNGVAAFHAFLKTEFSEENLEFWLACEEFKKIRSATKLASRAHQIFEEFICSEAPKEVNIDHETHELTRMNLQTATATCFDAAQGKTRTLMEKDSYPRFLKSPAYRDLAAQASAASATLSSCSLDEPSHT
Target sequence (P09471 whole entry, looked up): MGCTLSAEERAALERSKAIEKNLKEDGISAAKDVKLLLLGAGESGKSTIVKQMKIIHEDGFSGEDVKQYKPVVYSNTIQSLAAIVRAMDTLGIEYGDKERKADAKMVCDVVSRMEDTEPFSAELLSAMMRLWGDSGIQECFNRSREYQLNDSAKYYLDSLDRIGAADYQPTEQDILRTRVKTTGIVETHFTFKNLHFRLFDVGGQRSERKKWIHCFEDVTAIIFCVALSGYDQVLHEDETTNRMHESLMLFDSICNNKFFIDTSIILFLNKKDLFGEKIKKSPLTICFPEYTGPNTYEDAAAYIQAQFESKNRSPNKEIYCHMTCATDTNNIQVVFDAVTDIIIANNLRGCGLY
PKD1 inh: PKD1 (human) kinase inhibition. PKD1 kinase fluorescence polarization assay. inhibition, %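 (about 10 µM by stock and volumes)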. 200,000 tested, 0.056% active. AID 797;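 active means inhibition of 50% or more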;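 further: controls were vehicle for no effect and a reference inhibitor for full effect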
Insulin prom inh cell count: further read-out of Insulin prom inh, marked with its call; normalized cell count, %; measured here: cell count, toxicity; reference of the scale not given here;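 cells exposed to compound for 48 h; stained nuclei by imaging scaled within each plate; lower means fewer cells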
HSV replic up primary fold: recorded beside HSV replic up, whose call it bears; fold increase; compound at 10 µM; measured here: primary screen fold increase 10 uM; tested in PC3 cells;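 GFP signal in the first replicate; 1 = infected wells without compound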
* = called active by the depositor.

What do the screens show for `COC(=O)C(C)Sc1ncnc2c1c(-c1ccccc1)cn2-c1ccc(OC)cc1` (centres undefined)?
GALR2 ag: -1.4; RGS16-Gao: 102.6; PKD1 inh: -6.3

Results for CCOc1cc(NS(=O)(=O)c2ccccc2)c(OCC)cc1NC(=O)c1ccco1 ?
Insulin prom inh: -128.6; HSV replic up: inactive; GALR2 ag: -1.2; RGS16-Gao: 103.2; PKD1 inh: -3.5; Insulin prom inh cell count: 115.5; HSV replic up primary fold: 1.14

Results for O=C1Nc2cc(Cl)c(Cl)cc2N(O)N1c1ccc(Cl)c(Cl)c1 ?
Insulin prom inh: 20.0; GALR2 ag: -1.6; RGS16-Gao: 120.0; PKD1 inh: 1.4; Insulin prom inh cell count: 170.6

Results for CCOC(=O)c1cc(NC(=O)c2cccnc2)ccc1N1CCOCC1 ?
Insulin prom inh: -20.0; HSV replic up: inactive; RGS16-Gao: 109.9; PKD1 inh: 0.8; Insulin prom inh cell count: 103.0; HSV replic up primary fold: 0.98

Results for Fc1ccc(NC(=S)NC2CCN(Cc3ccccc3)CC2)cc1 ?
Insulin prom inh: -47.4; HSV replic up: inactive; RGS16-Gao: 106.0; PKD1 inh: -2.1; Insulin prom inh cell count: 123.8; HSV replic up primary fold: 0.98

How did CCn1c(COc2ccc(=O)n(-c3ccccc3)n2)nnc1SCc1cccc(OC)c1 do in these assays?
Insulin prom inh: 45.5; HSV replic up: inactive; GALR2 ag: -1.7; RGS16-Gao: -13.3*; PKD1 inh: -10.2; Insulin prom inh cell count: 48.3; HSV replic up primary fold: 0.84

Results for N/C(=N\OC(=O)COc1ccc2ccccc2c1)c1ccccn1 ?
Insulin prom inh: -26.7; HSV replic up: inactive; GALR2 ag: -3.6; RGS16-Gao: 107.5; PKD1 inh: -3.4; Insulin prom inh cell count: 106.8; HSV replic up primary fold: 0.88

How did CCn1c(SCC(=O)N/N=C/c2ccccc2OCC(=O)O)nnc1-c1ccc(OC)cc1 do in these assays?
Insulin prom inh: -31.7; HSV replic up: inactive; RGS16-Gao: 107.0; PKD1 inh: -3.7; Insulin prom inh cell count: 121.6; HSV replic up primary fold: 0.99

What do the screens show for `COCCn1c(SCC(=O)N2CC(=O)Nc3ccccc32)nnc1-c1ccoc1C`?
Insulin prom inh: -25.8; HSV replic up: inactive; GALR2 ag: -2.7; RGS16-Gao: 30.0; PKD1 inh: -17.4; Insulin prom inh cell count: 131.1; HSV replic up primary fold: 0.9

How did CC(C)Cc1nnc(NC(=O)CSc2ncn[nH]2)s1 do in these assays?
Insulin prom inh: -10.5; HSV replic up: inactive; GALR2 ag: -1.7; RGS16-Gao: 81.1; PKD1 inh: -2.9; Insulin prom inh cell count: 118.8; HSV replic up primary fold: 0.93

What do the screens show for `CC(=O)N1CCc2cc(S(=O)(=O)NC(CC(C)C)C(=O)Nc3cc(C)ccn3)ccc21` (centres undefined)?
HSV replic up: inactive; GALR2 ag: -1.4; RGS16-Gao: 103.0; PKD1 inh: -1.5; HSV replic up primary fold: 0.91

Results for CC(=O)Nc1ccc(N(C)S(C)(=O)=O)cc1 ?
Insulin prom inh: -34.5; HSV replic up: inactive; GALR2 ag: -1.1; RGS16-Gao: 103.2; PKD1 inh: 3.2; Insulin prom inh cell count: 77.9; HSV replic up primary fold: 0.98

What do the screens show for `CC(=O)N1CCN(CC(=O)c2ccc(Br)cc2)CC1`?
Insulin prom inh: 60.0; HSV replic up: inactive; GALR2 ag: 0.1; RGS16-Gao: 85.4; PKD1 inh: -4.0; Insulin prom inh cell count: 113.2; HSV replic up primary fold: 0.97

How did CC(=O)N[C@H]1[C@H](OCc2ccccc2F)O[C@H](COC(C)=O)[C@@H](OC(C)=O)[C@@H]1OC(C)=O do in these assays?
HSV replic up: inactive; RGS16-Gao: 100.5; HSV replic up primary fold: 1.01

How did COc1cc(/C=N/n2nnnc2N)ccc1O do in these assays?
HSV replic up: inactive; GALR2 ag: -1.0; RGS16-Gao: 106.0; PKD1 inh: 4.2; HSV replic up primary fold: 0.91

How did Cc1cc(C)n(-c2nc(NCCO)c3c4c(sc3n2)CCCC4)n1 do in these assays?
Insulin prom inh: -41.7; HSV replic up: inactive; GALR2 ag: 8.1*; RGS16-Gao: 104.6; PKD1 inh: -3.5; Insulin prom inh cell count: 138.8; HSV replic up primary fold: 0.78

What do the screens show for `CCCC(=O)C1=C(N(C)c2ccccc2)CC(C)(C)C(C(=O)OC)C1=O` (centres undefined)?
Insulin prom inh: -12.8; HSV replic up: inactive; GALR2 ag: 1.5; RGS16-Gao: 111.7; PKD1 inh: 4.3; Insulin prom inh cell count: 55.6; HSV replic up primary fold: 0.89

How did Cc1cccc(CSC2=NCCN2C(=O)c2ccc(S(=O)(=O)N(C)C)cc2)c1 do in these assays?
Insulin prom inh: -14.3; HSV replic up: inactive; RGS16-Gao: 139.3; PKD1 inh: -3.2; Insulin prom inh cell count: 136.8; HSV replic up primary fold: 0.81

What do the screens show for `CN1C(CC(=O)Nc2ccc(Br)cc2)c2ccccc2CC1(C)C` (centres undefined)?
HSV replic up: inactive; RGS16-Gao: 107.2; PKD1 inh: -4.0; HSV replic up primary fold: 0.85

How did COCCCC1CCN(Cc2nc(-c3ccccc3)no2)CC1 do in these assays?
HSV replic up: inactive; RGS16-Gao: 101.2; PKD1 inh: -4.7; HSV replic up primary fold: 0.93

Results for Cc1ccc(-c2nnn(CC(=O)N(CC3CCCO3)C(C(=O)NC3CCCCC3)c3ccc(F)cc3)n2)o1 (centres undefined) ?
Insulin prom inh: -7.0; HSV replic up: inactive; GALR2 ag: -0.1; RGS16-Gao: 97.3; PKD1 inh: 0.6; Insulin prom inh cell count: 118.2; HSV replic up primary fold: 0.99

How did COc1ccccc1C1=NOC(Cn2c(NCCCO)nc3c2c(=O)n(C)c(=O)n3C)C1 (centres undefined) do in these assays?
HSV replic up: inactive; RGS16-Gao: 102.5; HSV replic up primary fold: 1.09

Results for CC(C)(C)n1nnnc1C(c1cccc(C#N)c1)N1CCCc2ccccc21 (centres undefined) ?
Insulin prom inh: -64.3; HSV replic up: inactive; GALR2 ag: -0.7; RGS16-Gao: 97.5; PKD1 inh: -0.8; Insulin prom inh cell count: 65.9; HSV replic up primary fold: 0.72

How did CN1CCN(Cc2cc(COCc3ccccc3)c3cccnc3c2O)CC1 do in these assays?
Insulin prom inh: 28.6; HSV replic up: inactive; GALR2 ag: -2.1; RGS16-Gao: 99.9; PKD1 inh: 3.7; Insulin prom inh cell count: 106.4; HSV replic up primary fold: 0.81

What do the screens show for `Cc1ccc(C(=O)COc2ccccc2-c2ccccc2)cc1`?
Insulin prom inh: 42.9; HSV replic up: inactive; GALR2 ag: 0.0; RGS16-Gao: 150.4; PKD1 inh: 5.8; Insulin prom inh cell count: 92.2; HSV replic up primary fold: 1.06

How did O=C(C1CCN(S(=O)(=O)N2CCC3(CC2)OCCO3)CC1)N1CCOCC1 do in these assays?
Insulin prom inh: -16.2; HSV replic up: inactive; GALR2 ag: -1.4; RGS16-Gao: 106.9; PKD1 inh: -7.5; Insulin prom inh cell count: 124.8; HSV replic up primary fold: 0.69

Results for CC(=O)Nc1ccc(SCC(=O)Nc2ccccc2Oc2ccccc2)cc1 ?
Insulin prom inh: 23.5; HSV replic up: inactive; GALR2 ag: -1.8; RGS16-Gao: 96.6; PKD1 inh: 0.8; Insulin prom inh cell count: 115.2; HSV replic up primary fold: 0.86

Results for CSCc1ccc(C(=O)NCc2ccccc2)cc1 ?
Insulin prom inh: -60.0; HSV replic up: inactive; GALR2 ag: -1.2; RGS16-Gao: 80.6; PKD1 inh: 5.5; Insulin prom inh cell count: 163.2; HSV replic up primary fold: 0.91

What do the screens show for `Cc1ccc(C)c(NC(=O)C2CC(O)CN2C(=O)OC(C)(C)C)c1` (centres undefined)?
Insulin prom inh: 64.3; HSV replic up: inactive; GALR2 ag: -1.8; RGS16-Gao: 98.8; PKD1 inh: -1.3; Insulin prom inh cell count: 74.7; HSV replic up primary fold: 0.87

Results for Cc1ccc(NC(=O)CSc2nnc(Cn3c(=O)sc4ccccc43)n2C)cc1 ?
HSV replic up: inactive; GALR2 ag: -0.4; RGS16-Gao: 96.0; PKD1 inh: -12.0; HSV replic up primary fold: 0.99

Results for Cc1cccn2c(=O)c3cc(S(=O)(=O)c4ccc(F)cc4)c(=N)n(Cc4ccco4)c3nc12 ?
HSV replic up: inactive; RGS16-Gao: 103.2; HSV replic up primary fold: 1.06

How did COc1ccc(-n2nnc3c(=O)n(CC(=O)Nc4cc(C)on4)cnc32)cc1 do in these assays?
Insulin prom inh: -15.8; HSV replic up: inactive; RGS16-Gao: 112.3; PKD1 inh: -2.3; Insulin prom inh cell count: 109.4; HSV replic up primary fold: 0.93

Results for OC1CCCN(c2c3c(nc4cc(-c5cccc(Cl)c5)nn24)CCC3)C1 (centres undefined) ?
Insulin prom inh: -492.3; HSV replic up: inactive; GALR2 ag: -0.8; RGS16-Gao: 106.6; PKD1 inh: -1.5; Insulin prom inh cell count: 91.2; HSV replic up primary fold: 0.82

How did O=[N+]([O-])c1ccc(Cl)cc1N1CCOCC1 do in these assays?
Insulin prom inh: 11.1; HSV replic up: inactive; RGS16-Gao: 102.6; PKD1 inh: 4.4; Insulin prom inh cell count: 128.1; HSV replic up primary fold: 1.08

How did Cc1c(-c2ccccc2)sc2nc[nH]c(=S)c12 do in these assays?
Insulin prom inh: -41.7; HSV replic up: inactive; RGS16-Gao: 102.5; PKD1 inh: -11.0; Insulin prom inh cell count: 153.3; HSV replic up primary fold: 0.87

What do the screens show for `COc1ccc(N2CCN(c3cc(C)c4cccc(C)c4n3)CC2)cc1`?
Insulin prom inh: -12.2; HSV replic up: inactive; RGS16-Gao: 100.7; PKD1 inh: -3.5; Insulin prom inh cell count: 108.6; HSV replic up primary fold: 1.02

What do the screens show for `O=C(N/N=C\c1ccc(CNS(=O)(=O)c2ccccc2)o1)C(=O)Nc1ccc(F)cc1`?
Insulin prom inh: 29.6; HSV replic up: inactive; GALR2 ag: -0.7; RGS16-Gao: 98.1; PKD1 inh: -6.8; Insulin prom inh cell count: 143.7; HSV replic up primary fold: 0.96

What do the screens show for `CC(=O)N(Cc1ccc(F)cc1)C1=C(NCc2ccccc2)C(=O)c2ccccc2C1=O`?
Insulin prom inh: 50.0; GALR2 ag: -4.0; RGS16-Gao: 102.7; PKD1 inh: -7.4; Insulin prom inh cell count: 25.8

How did S=C(NCCc1ccc(Cl)cc1)NCc1ccco1 do in these assays?
Insulin prom inh: -23.5; HSV replic up: inactive; RGS16-Gao: 96.0; PKD1 inh: 1.4; Insulin prom inh cell count: 121.0; HSV replic up primary fold: 1.06

How did CCOCCCNC(C(=O)Nc1ccc(OC)c(Cl)c1)c1ccccc1 (centres undefined) do in these assays?
HSV replic up: inactive; RGS16-Gao: 109.5; PKD1 inh: -4.3; HSV replic up primary fold: 0.92

Overlap with the part before: 3 entries, followed by the next part.
What do the screens show for `CC(=O)N(Cc1ccc(F)cc1)C1=C(NCc2ccccc2)C(=O)c2ccccc2C1=O`?
Insulin prom inh: 50.0; GALR2 ag: -4.0; RGS16-Gao: 102.7; PKD1 inh: -7.4; Insulin prom inh cell count: 25.8

How did S=C(NCCc1ccc(Cl)cc1)NCc1ccco1 do in these assays?
Insulin prom inh: -23.5; HSV replic up: inactive; RGS16-Gao: 96.0; PKD1 inh: 1.4; Insulin prom inh cell count: 121.0; HSV replic up primary fold: 1.06

How did CCOCCCNC(C(=O)Nc1ccc(OC)c(Cl)c1)c1ccccc1 (centres undefined) do in these assays?
HSV replic up: inactive; RGS16-Gao: 109.5; PKD1 inh: -4.3; HSV replic up primary fold: 0.92

Results for COc1ccc(-c2cc3n(n2)CCc2nc4ccccc4n2-3)cc1 ?
Insulin prom inh: -21.0; HSV replic up: inactive; GALR2 ag: 2.6; RGS16-Gao: 95.1; PKD1 inh: -1.5; Insulin prom inh cell count: 174.3; HSV replic up primary fold: 0.87

What do the screens show for `O=C(c1cc2ccccc2o1)N1CC=C(c2ccccc2)CC1`?
HSV replic up: inactive; RGS16-Gao: 105.0; HSV replic up primary fold: 0.97

What do the screens show for `O=C(CN1CCCC1)Nc1ccc(Oc2ccc(NC(=O)CN3CCCC3)cc2)cc1`?
Insulin prom inh: -7.1; HSV replic up: inactive; GALR2 ag: -1.4; RGS16-Gao: 98.9; PKD1 inh: 3.4; Insulin prom inh cell count: 87.5; HSV replic up primary fold: 0.88

Results for C/C=C(\C)C(=O)NCCN1C2=NC[C@@H](Cc3ccccc3)N2C[C@H]1Cc1ccc(O)cc1 ?
HSV replic up: inactive; RGS16-Gao: 85.4; PKD1 inh: -4.7; HSV replic up primary fold: 0.88

Compounds were not picked by outcome. About 1.3% of those tested had a hit in this group.
